Screens deposited in PubChem by National Center for Advancing Translational Sciences (NCATS).
A488 fluor: compound fluoresces in the A488 spectral region; compound autofluorescence, A488 spectral region, dye equivalency; stronger effect = higher value; max dye equivalency, M; 59,000 tested, 0.1% active; AID 591; active = above 10 nM dye equivalent; inconclusive = 1 to 10 nM; inactive = 1 nM or less; about half of its hits are not listed in these tables;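 further: highest value over a series up to 38 µM; compound alone in buffer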
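Compounds pin-transferred into 100 mM Tris buffer, pH 8.0, incubated 15 min at room temperature, then imaged with 480 nm excitation/540 nm emission filters. Fluorescence converted to Alexa 488 dye-equivalent concentration via an on-plate six-point A488 standard curve.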
A647 fluor: compound fluoresces in the A647 spectral region. Compound fluorescence, A647 channel (570/671 nm), Tris buffer. max dye-equivalent concentration, M. 59,000 tested, under 10 active. AID 592; active means above 1 µM dye equivalent; inconclusive means 0.1 to 1 µM; inactive means 0.1 µM or less;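 further: values scaled relative to a standard on each plate; highest value over a series up to 38 µM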
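Spectral profiling of library compounds in pH 8.0 Tris: 15 min room-temperature incubation, single ex/em pair (570/671 nm), response normalized to Alexa 647 equivalents.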
AID923: qHTS Assay for Allosteric/Competitive Inhibitors of Caspase-1: Spectroscopic Profiling in AFC Spectral Region. compound fluorescence, AFC spectral region (405/520 nm); almost no hit is shown here. Potency, µM (highest dose often 57.5 µM), inactives show at the top dose fluorescence increase, hits mostly activators. 75,000 tested, 1.1% active. AID 923, 2007; active means well fitted activation curve with a large enough effect; inconclusive means small, poorly fitted or top-dose-only effect;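 further: potency means the concentration at half of the fitted maximal effect; 0% is about no effect; scaled to a free AFC standard on each plate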
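Compound autofluorescence profiled at 405 nm ex/520 nm em during kinetic caspase 1 run (50 nM enzyme, 5 uM Ac-WEHD-AFC, HEPES pH 7.5, 10 mM DTT). Titration up to 57 uM; baseline from regression intercept, normalized to AFC standard curve.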
Resorufin autofl: compound fluoresces in the resorufin spectral region | Compound fluorescence, resorufin region 547/598 nm, buffer; stronger effect = higher value | max dye-equivalent concentration, M | 59,000 tested, 0.04% active | AID 588; active = above 10 nM dye equivalent; inconclusive = 1 to 10 nM; inactive = 1 nM or less; a few of its hits are not listed in these tables; further: highest value over a series up to 38 µM
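Compounds in 100 mM Tris buffer, pH 8.0, incubated 15 min at room temperature, then read with 547 nm excitation and 598 nm emission filters. Fluorescence was converted to dye-equivalent concentration using an on-plate six-point resorufin standard curve.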
TSHR agonist: agonists of human thyroid stimulating hormone receptor. HEK293-CNG-TSHR cells (CNG channel as cAMP sensor), membrane potential dye, cAMP. P16473. AID 926. 73,000 tested, 0.48% active. Potency, µM (series often up to 57.1 µM), for the others: at the top dose activation, usual class: activators; active = well fitted activation curve of enough size with the parental cells flat; inconclusive = any curve in the parental cells; inactive = parental cells flat and receptor cells flat or falling; further: potency means the concentration at half of the fitted maximal effect; % of control where 0% means no effect; weak receptor curves with flat parental cells got no call and are not listed
Target sequence (P16473 whole entry, looked up): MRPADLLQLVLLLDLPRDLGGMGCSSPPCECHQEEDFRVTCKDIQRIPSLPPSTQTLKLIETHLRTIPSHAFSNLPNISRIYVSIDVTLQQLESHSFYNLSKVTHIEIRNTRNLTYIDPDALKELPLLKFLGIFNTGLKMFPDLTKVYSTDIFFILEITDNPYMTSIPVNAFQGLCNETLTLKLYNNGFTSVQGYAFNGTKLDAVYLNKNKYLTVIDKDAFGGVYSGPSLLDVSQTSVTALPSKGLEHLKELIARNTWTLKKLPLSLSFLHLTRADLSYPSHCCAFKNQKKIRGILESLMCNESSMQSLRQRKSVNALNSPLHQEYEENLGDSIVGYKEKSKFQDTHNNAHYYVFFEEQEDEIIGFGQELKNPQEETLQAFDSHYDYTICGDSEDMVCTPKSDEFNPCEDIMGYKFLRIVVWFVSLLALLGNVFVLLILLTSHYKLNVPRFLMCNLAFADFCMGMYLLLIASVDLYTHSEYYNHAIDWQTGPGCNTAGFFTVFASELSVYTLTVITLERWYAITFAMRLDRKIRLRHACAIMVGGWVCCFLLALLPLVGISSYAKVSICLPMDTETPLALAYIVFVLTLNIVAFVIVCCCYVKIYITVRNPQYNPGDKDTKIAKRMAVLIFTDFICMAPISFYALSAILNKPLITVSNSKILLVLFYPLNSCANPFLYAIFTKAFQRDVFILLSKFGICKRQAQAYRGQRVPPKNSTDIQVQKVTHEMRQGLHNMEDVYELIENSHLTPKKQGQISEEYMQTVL
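HEK 293 cells stably expressing TSHR and a modified CNG channel, with CNG-only parental cells as counterscreen, were preloaded 60 min at room temperature with membrane potential dye containing 100 uM RO 20-1724. Compound exposure was 30 min, and depolarization was read as fluorescence at 590 nm.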
* = called active by the depositor; i = inactive; ? = inconclusive; nt = not tested or not shown; [ ] = another dose, or the depositor's remark. This is a subset; rates above refer to the full screens.

Below each SMILES – TSHR agonist	A488 fluor	A647 fluor	AID923	Resorufin autofl
> c1ccc(Cn2nnnc2C(c2cccs2)N2CCCCCC2)cc1 (stereo not given)
  ?	i	3.1e-08	0.1%	i
> Cc1ccccc1-n1c(Cn2c(=O)sc3ccccc32)nnc1SCC(=O)Nc1nccs1
  5%	nt	nt	-4.7%	nt
> O=C(Cn1cnc2c(cnn2-c2ccc(F)cc2)c1=O)OCc1ccccc1
  ?	i	1e-09	-0.6%	i
> O=C(C1CCC1)N(CCc1ccccc1)Cc1nc2ccccc2c(=O)[nH]1
  ?	i	4.9e-08	-0.9%	i
> CCOc1ccc2c(c1)sc1nc(C(=O)OC)cc(=O)n12
  -4%[11.4 µM]	nt	nt	-0.4%	nt
> CN(C1CCCCC1)S(=O)(=O)c1ccc(S(=O)(=O)N2CCCC2)cc1
  24%	i	2.4e-08	-1.1%	i
> O=C(Cc1c(F)cccc1Cl)NCC1CCCO1 (stereo not given)
  1%	i	1.9e-08	-2.0%	i
> CC(=O)Nc1ccc(S(=O)(=O)Nc2nc3n(n2)C(c2ccccc2)CC(=O)N3)cc1 (stereo not given)
  nt	i	1.6e-08	nt	i
> Cc1c(S(=O)(=O)Nc2ccc3c(c2)OCCO3)c(=O)n(C)c(=O)n1C
  -4%[11.4 µM]	nt	nt	2.4%	nt
> O=C(Cn1nnc(-c2ccc(S(=O)(=O)N3CCCC3)cc2)n1)Nc1ccccc1-n1cccc1
  18%	i	2e-09	1.2%	i
> CN1C(=O)N(C)C2(c3ccccc3)NC(=O)NC12c1ccccc1 (stereo not given)
  0%	i	1.2e-09	0.6%	i
> COc1ccc2nc(NC(=O)c3cnccn3)sc2c1
  -7%	i	1.9e-09	0.4%	i
> CCCCn1nnnc1NCc1cc(OC)c(OC)c(OC)c1
  6%	i	3.4e-08	-1.4%	i
> COc1ccc2c(c1)c1ncn(Cc3ccco3)c(=O)c1n2C
  ?	i	9e-09	-0.2%	i
> O=C(C1CC1)N1CCc2cc(S(=O)(=O)NC3CCN(Cc4ccccc4)CC3)ccc21
  24%	i	1.1e-08	-0.2%	i
> COc1cc(OC)cc(C(=O)NCC(=O)N2CCCCC2)c1
  nt	i	6.8e-09	-0.9%	i
> Cc1cc(C(=O)CSCCCn2c(=O)[nH]c3ccccc32)c(C)n1C
  -2%	i	2.4e-08	0.9%	i
> CCn1c(-c2ccc(N(C)C)cc2)nc2ccccc21
  21%	i	6.7e-09	2.8%	i
> CCOc1ccc(C2N(c3ccc(F)cc3)C(=O)C3CCCN32)cc1 (stereo not given)
  7%	nt	nt	4.0%	nt
> Cc1cc(C)c(C#N)c(SCC2COc3ccccc3O2)n1 (stereo not given)
  ?	nt	nt	-1.0%	nt

Going on with the list:
Below each SMILES – TSHR agonist	A488 fluor	A647 fluor	AID923	Resorufin autofl
> COc1ccccc1NC(=O)CN1CCC(n2c(C)nc3cc(F)ccc32)CC1
  15%	i	1.7e-08	1.6%	i
> COc1ccccc1NC(=O)CC1C(=O)NCCN1C(=O)Nc1ccc(Cl)c(Cl)c1 (stereo not given)
  -6%	i	4.8e-08	-4.5%	i
> CCCn1c(SCC(=O)NCc2ccco2)nnc1C(C)C
  -4%	i	2.3e-08	2.1%	i
> COC(=O)CCC(=O)Nc1cccc(Cl)c1
  -3%	i	1.7e-08	1.6%	i
> CC(=O)NC12CC3CC(C1)CC(C(=O)OCC(=O)Nc1ncc(Cl)c(C)c1Cl)(C3)C2
  10%	i	1e-09	2.8%	i
> CCOC(=O)c1[nH]c2c(c1C)C(=O)CC(c1ccc(F)cc1)C2 (stereo not given)
  13%	nt	nt	0.4%	nt
> CCc1ccc(NS(=O)(=O)c2cc(OC)ccc2OC)cc1
  21%	nt	nt	1.8%	nt
> O=S(NCc1ccco1)C12CC3CC(CC(C3)C1)C2 (stereo not given)
  5%	i	1e-09	-1.0%	i
> COc1ccc(C(=O)NCCCCCC(=O)O)cc1OC
  nt	i	6.8e-08	nt	i
> O=C(NCC(=O)N(CC1CCCO1)C(C(=O)NC1CCCCC1)c1ccc(F)cc1)c1ccco1 (stereo not given)
  10%	i	4.4e-09	0.7%	i
> COc1ccc(-c2nc(CSCC(=O)N3CCc4ccccc43)c(C)o2)cc1OC
  5%[11.4 µM]	i	7.6e-09	-0.9%	i
> COc1ccccc1CNC(=O)CCCn1c(=O)c2ccccc2n(CC(=O)NC2CCCC2)c1=O
  7%	i	2.8e-08	-0.4%	i
> Cc1ccc(S(=O)(=O)Cc2csc(N)n2)cc1
  4%	i	4.7e-08	0.1%	i
> Cc1c(C(=O)NC2CCCCC2)sc2nc3ccc(N)cc3n12
  -20%	nt	nt	-1.1%	nt
> CCn1nc(CC(=O)Nc2nnc(CC(=O)N3CCCC3)s2)c2ccccc2c1=O
  -1%	i	1.7e-08	0.2%	i
> CC1CCCCC1NC(=O)CSc1nc2ccccc2c(=O)n1Cc1ccco1 (stereo not given)
  ?	i	1e-09	0.2%	i
> COc1ccc(-n2c(SCC(=O)NCc3cccs3)nnc2-c2ccoc2C)cc1
  nt	i	4.9e-08	0.9%	i
> CCCOC(=O)c1cccc(NC(=O)c2cccnc2)c1
  -20%	nt	nt	4.3%	nt
> O=C1C(Cl)=C(NC2CCc3ccccc32)C(=O)c2ncccc21 (stereo not given)
  ?	nt	nt	14%	nt
> CCOC(=O)c1c(NS(C)(=O)=O)sc2c1CCC(C)C2 (stereo not given)
  21%	nt	nt	0.1%	nt

(continued)
Below each SMILES – TSHR agonist	A488 fluor	A647 fluor	AID923	Resorufin autofl
> O=c1cc(-c2ccncc2)oc2ccccc12
  -1%	nt	nt	2.4%	nt
> Cn1c(=O)cc(OCC(=O)NCCCN2CCN(c3cccc(Cl)c3)CC2)c2ccccc21
  -15%	nt	nt	1.1%	nt
> COc1ccc(Cl)c(NC(=O)Nc2c(C)n(-c3ccccc3)c(=O)n2C)c1
  ?	i	1.9e-08	-0.8%	i
> CCOC(=O)C1CCN(S(=O)(=O)c2ccc(C(=O)OC)cc2)CC1
  -1%	i	2e-08	0.5%	i
> COC(=O)c1c(-c2ccco2)csc1NC(=O)C1CC=CCC1C(=O)O (stereo not given)
  11%	i	2.3e-09	0.6%	i
> CN(C)CCNc1nc2c(c(=O)[nH]c(=O)n2C)n1CC(O)COc1ccc(Cl)cc1 (stereo not given)
  -12%	i	2.9e-08	-1.1%	i
> CCOC(=O)c1sc(NC(=O)C2CC=CCC2C(=O)O)nc1C (stereo not given)
  -13%	nt	nt	-0.5%	nt
> CCOC(=O)CCN1C(=O)[C@H]2[C@H]3[C@H](O)[C@H](O)C/C(=N/NC(=O)OCc4ccc(OC)cc4)[C@@H]3CC[C@@H]2C1=O
  -2%[11.4 µM]	nt	nt	-0.1%[11.5 µM]	nt
> COc1ccc(CSC2=NCCN2)cc1Cl
  nt	i	2e-09	nt	i
> COc1ccc(C)cc1NC(=O)C1CCCN(S(=O)(=O)c2c(C)noc2/C=C/N(C)C)C1 (stereo not given)
  -4%	nt	nt	1.8%	nt
> CCOC(=O)c1ccc(NC(=O)CSc2nnc(Cc3cccs3)n2C)cc1
  4%	i	1e-09	-0.1%	i
> Cc1ccc(Cn2c(=O)cc(C(=O)O)c3ccccc32)cc1
  13%	i	1e-09	-1.0%	i
> COCC(=O)N(CCc1ccc(OC)c(OC)c1)Cc1nc2ccccc2c(=O)[nH]1
  0%	i	1.4e-08	-0.4%	i
> CC(C)c1ccc(NC(=O)C(c2ccc3c(c2)OCO3)N2CCC3(CC2)OCCO3)cc1 (stereo not given)
  9%	i	2.8e-08	0.7%	i
> Nc1nnc2c(n1)CCCC2
  2%	i	1.9e-08	2.7%	i
> COCCN1Cc2cccc(C(=O)Nc3ccc4c(c3)OCCO4)c2C1=O
  8%	nt	nt	-5.1%	nt
> Cc1c(C)n(C)c2ccc(C(=O)NCc3cccs3)cc12
  17%	nt	nt	-2.2%	nt
> CC(C)(CNC(=O)c1cc2ccccc2o1)N1CCOCC1
  0%	i	1e-09	-0.3%	i
> CCOc1cccc2cc(-c3cn4cc(C)ccc4n3)c(=O)oc12
  0%	i	2.8e-09	3.6%	i
> O=C1c2cccnc2C(=O)N1Cc1ccco1
  3%	i	2.9e-08	0.2%	i

Sorted by heavy-atom count (highest first): part of the list above.
Below each SMILES – TSHR agonist	A488 fluor	A647 fluor	AID923	Resorufin autofl
> COc1ccc(C)cc1NC(=O)C1CCCN(S(=O)(=O)c2c(C)noc2/C=C/N(C)C)C1 (stereo not given)
  -4%	nt	nt	1.8%	nt
> COCC(=O)N(CCc1ccc(OC)c(OC)c1)Cc1nc2ccccc2c(=O)[nH]1
  0%	i	1.4e-08	-0.4%	i
> CC(C)(CNC(=O)c1cc2ccccc2o1)N1CCOCC1
  0%	i	1e-09	-0.3%	i

Carrying on.
Below each SMILES – TSHR agonist	A488 fluor	A647 fluor	AID923	Resorufin autofl
> c1ccc2c(NC3CCNCC3)nc(-c3ccoc3)nc2c1
  3%	i	4.7e-08	4.1%	i
> O=c1c2[nH]c3ccccc3c2ncn1CCCn1ccnc1
  0%	i	2.5e-09	2.4%	i
> CCOc1ccc(/C(=N\O)C(C)NO)cc1 (stereo not given)
  -11%	nt	nt	0.1%	nt
> Cc1csc2nc(CSc3nc4ccccc4o3)cn12
  nt	i	7.7e-08	nt	i
> CC(C)CCn1c(=O)c2ccccc2n2c(CN3C(=O)NC4(CCC(C)CC4)C3=O)nnc12 (stereo not given)
  -27%	i	1e-09	-1.0%	i
> Cc1ccc(O)c(NC(=O)C2CC(c3c(F)cccc3Cl)=NO2)c1 (stereo not given)
  ?	i	1e-09	0.4%	i
> CCOC(=O)c1cnc(=O)[nH]c1C
  0%	i	3.5e-08	1.2%	i
> COC(=O)c1[nH]c2ccccc2c1NC(=O)CN1CCN(C(=O)c2ccco2)CC1
  3%	i	1e-09	0.1%	i
> CCOC(=O)C1C2C=CC3(CN(c4ccc(Cl)c(F)c4)C(=O)C13)O2 (stereo not given)
  15%	nt	nt	0.5%	nt
> CCC(CC)C(=O)NCCc1cc2c(OC)ccc(OC)c2[nH]c1=O
  -3%	i	3.6e-09	1.1%	i
> Cc1ccc2nc(N3CCN(Cc4ccc(F)cc4)C3=O)c(C)cc2c1
  ?	i	4.1e-08	-1.4%	i
> Cc1ccccc1Nc1nc(N)nc(CSc2nnnn2-c2ccccc2)n1
  ?	i	2.2e-08	0.5%	i
> COc1ccc(CN(Cc2cccnc2)S(=O)(=O)c2ccc(-n3cnnn3)c(C)c2)cc1OC
  2%	i	1e-09	3.7%	i
> COc1ccccc1C(=O)N1CCN(C2CCN(Cc3ccccc3)CC2)CC1
  2%	i	2.2e-08	-1.6%	i
> Cc1ccc(C)c(OCC(=O)Nc2nonc2NC(=O)COc2cc(C)ccc2C)c1
  ?	i	9.7e-09	-1.2%	i
> O=C1c2ccccc2C(Nc2ccc3c(c2)OCCO3)N1Cc1ccccc1 (stereo not given)
  32%	nt	nt	-0.7%	nt
> Cc1ccc(-c2nnc3sc(-c4ccc5c(c4)OCCO5)nn23)cc1
  19%	i	1e-09	-2.4%	i
> O=C1NC2=C(C(=O)CCC2)C(c2ccc3ncccc3c2)N1 (stereo not given)
  -4%	i	2.1e-08	0.3%	i
> COc1ccc(NC(=O)NCc2ccccn2)cc1OC
  8%	i	1e-09	-0.5%	i
> CCCC(=O)Nc1cccc(-c2nc3cc(C)c(C)cc3o2)c1
  6%[11.4 µM]	nt	nt	3.0%	nt
> COc1ccccc1N1CCN(C(=O)c2ccc(S(=O)(=O)N3CCCCC3)cc2)CC1
  -13%	i	2.1e-08	2.9%	i
> O=C(CN1CCC(n2nnc3cc(C(F)(F)F)ccc32)CC1)NCc1cccs1
  21%	i	1e-09	2.0%	i
> CCOc1ccc(Nc2cc(C)nc3nc(C)nn23)cc1
  12%	nt	nt	0.4%	nt
